# NPYLR7 ag – mosquito NPYLR7 agonism; 270,000 compounds, 0.15% hits; activation, % at 10 µM; AID 1259423; HEK293T NPYLR7/Galpha15, GCaMP6s calcium fluorescence; in the data active = activation above about 40%;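 also: 0% = vehicle and 100% = reference agonist at the receptor; some compounds past the cut are filed as inactive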
# NPYLR7 ag max-min – also measured in NPYLR7 ag; calls as there; activation, %; measured here: Max-Min RFU normalised activation; some inactives read as strong as hits;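 span of the calcium signal over five minutes; 0% = vehicle and 100% = native peptide agonist; compound fluorescence can raise it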
# Numbers without * were called inactive; & = joins results of further samples. Some of the compounds tested. The share of hits here may be higher or lower than overall.
Molecule	NPYLR7 ag	NPYLR7 ag max-min
N#CC1(C#N)OC(C#N)(C#N)C2c3ccccc3OC21 (stereo not drawn)	-5	-7
CCOC(=O)CN(C)C(=O)CC(c1ccccc1)c1ccccc1F (stereo not drawn)	14	4
CC(C)c1ccc(NC(=O)N(C)CCN(C)C2CCN(C)CC2)cc1	5	3
COc1ccc(-c2cccc(NS(=O)(=O)c3ccc(Cl)s3)c2)nn1	-1	29
C[C@@H]1[C@H]2C[C@@H](C[C@H]1NC(=O)CCC(=O)NC1CCCC1)C2(C)C	0	12
CCCCCCn1c(=O)c2c(nc3n2CCN3c2ccc(CC)cc2)n(C)c1=O	1	18
NC(N)=NCc1ccc2c(c1)OCCO2	-12	-22
COc1ccc(C(=O)NCC2CCCN(S(C)(=O)=O)C2)c(OC)n1 (stereo not drawn)	1	-1
Cc1cccc(CSc2ncc(CO)n2CC(=O)NC(C)C)c1	8	3
O=C(Nc1nnc(SCC2CC2)s1)c1ccco1	22	17
CCC(C)N(CC(=O)N(Cc1cccn1Cc1ccc(F)cc1)C1CCCCC1)C(=O)c1ccc([N+](=O)[O-])cc1 (stereo not drawn)	-4	-1
CC(=O)Nc1cc(C(=O)Nc2c(O)cccc2F)ccc1F	5	4
Cc1ccc(O)c(CN2CCCn3cccc3C2c2ccc(F)cc2)c1 (stereo not drawn)	5	17
Cc1ccccc1OCC1=NN2C(=N)/C(=C/c3ccc([N+](=O)[O-])o3)C(=O)N=C2S1	-2	-3
CCOC(=O)c1c(NC(=O)c2cccs2)sc(C(=O)Nc2ccc3c(c2)OCO3)c1C	17	13
Cn1ncc2c(N3CCCCC3)nc(N(CCO)Cc3ccccc3)nc21	1	-1
COc1ccc(S(=O)(=O)N(Cc2csc(COc3cc(Cl)ccc3Cl)n2)C(C)C)cc1	10	8
CCOC(=O)c1ccc2c(c1)nc(SCc1ccc(SC)cc1)n2Cc1ccccc1	13	10
CC(C)c1ccc(OCc2n[nH]c(=S)n2NC(=O)c2cnccn2)cc1	1	1
Cc1ccn(-c2ccc(Nc3ccc(NC(=O)C4CCCCC4)cc3)nn2)n1	-3	-5
Cc1ccc(-c2csc3ncnc(N4CCN(C(C(N)=O)c5ccccc5)CC4)c23)cc1 (stereo not drawn)	4	0
CC1(C)Nc2ccccc2NC1=O	3	1
O=C(NCc1cc(F)cc(F)c1)c1sc2ccccc2c1Cl	4	14
CC1C(=O)N(c2cccc(Br)c2)CCN1C(=O)c1ccc(Cl)c(Cl)c1 (stereo not drawn)	5	21
CCCCN1C(=O)c2ccc(C(=O)OCc3nc4ccccc4s3)cc2C1=O	2	-4
COc1cccc(C(NC(=O)C2CCN(CCCOc3ccccc3)CC2)c2ccccn2)c1 (stereo not drawn)	12	-4
Cc1cc(OCCON2C(=O)CCC2=O)c(C)cc1Cl	-3	-4
CCC(NC(=O)c1ccc(C(N)=O)nc1)c1ccc(Cl)cc1 (stereo not drawn)	-1	-3
OCCn1nnnc1-c1ccccc1	-6	-12
Cc1ccc(C)c(NC(=O)C(C)N2CCN(CC(=O)N3CCCC3)CC2)c1 (stereo not drawn)	-1	14
O=c1ncn2nc(Sc3ccc(F)cc3F)ccc2c1-c1c(Cl)cccc1Cl	10	12
COc1ccccc1N1CC(NC(=O)c2occc2C)CC1=O (stereo not drawn)	-4	-5
COc1cccc(S(=O)(=O)NC(=O)c2ccccc2OC)c1	7	3
COc1ccc(CN(C(=O)OC(C)(C)C)C2CCC(C(=O)N3CCOC(COc4ccccc4OC)C3)CC2)cc1C (stereo not drawn)	4	2
CCC(=O)NC(CCSC)C(=O)Nc1ccc(N2CCCC2)c(C)c1 (stereo not drawn)	12	11
COCc1cc(C)nc(OCC(=O)N/N=C\c2ccc(OCc3ccc(Cl)cc3Cl)cc2)c1C#N	-10	-11
NC(=O)CCC1CCCN(C(=O)c2cc3cc(Br)ccc3o2)C1 (stereo not drawn)	0	-2
CCn1cc(CN(Cc2ccc(SC)cc2)C2CC2)cn1	-3	-8
CCc1nc(CN2CCCC(CCC(=O)Nc3ccc(OC)c(Cl)c3)C2)c(C)[nH]1 (stereo not drawn)	19	10
CCC(CC)NC(=O)c1cc(S(C)(=O)=O)ccc1C	8	6
COC(=O)c1ccc(OCCN2CCCC2c2ccc[nH]2)cc1 (stereo not drawn)	9	5
Cc1ccc(CNc2cccc(C(=O)NCCN(C)C)c2)cc1	11	2
CCOC(=O)c1sc(NC(=O)c2c(-c3ccccc3Cl)noc2C)nc1C	5	2
CCc1[nH]c2c(CNC(=O)C3CCc4nn(C)c(=O)n4C3)cc(C)cc2c1C (stereo not drawn)	6	-4
COc1ccc(CCNC(=O)c2cccnc2N2CCN(S(=O)(=O)c3ccccn3)CC2)cc1OC	5	8
O=c1oc2ccccc2n1CCOc1cccc2ccccc12	1	0
Cc1cc(N(C)C(C)C2CC2)nc(C)n1 (stereo not drawn)	18	16
Cc1ccc(-c2nc(CN(Cc3ccccc3)CC3CC3)c(C)o2)o1	-3	-5
O=[N+]([O-])c1ccc(-c2nc3ccc([N+](=O)[O-])cc3o2)cc1	4	3
COc1ccc(-c2nnc(SCC(=O)N/N=C\c3c(F)cccc3Cl)n2-c2ccccc2)cc1OC	-5	-7
CCCCCCCC(=O)Nc1ccc(N2CCc3ccccc3C2)c(C(=O)NC2CC2)c1	-5	4
Cc1ccc(-c2cc(F)c3c(c2)CC(CNC(=O)CCc2cccnc2)O3)cc1F (stereo not drawn)	17	7
O=C(Cc1cc(-c2ccc3c(c2)OCO3)on1)NCc1cccs1	11	15
CC(=NOCc1ccc(C#N)cc1)c1ccc2c(c1)OCCO2	5	6
N#Cc1ccc(NC(=O)C2CC3CCCC(C2)C3=O)cc1 (stereo not drawn)	1	2
Cc1cccc(CO[C@]2(C(=O)NCCN3CCCC3)CC(OCc3c(F)cccc3F)[C@H](O)[C@H](O)C2)c1 (stereo partly drawn)	-6	-3
NC(=O)C1CN(C(=O)c2cccnc2Sc2ccc(Br)cc2)CCO1 (stereo not drawn)	8	7
Cn1c2ncccc2c(=O)n1CC(=O)NCc1cccs1	1&3	-6&1
CS(=O)(=O)c1cc(S(N)(=O)=O)ccc1F	-3	-4
COc1ccc(-c2cc(C(=O)NCCN3CCCCC3)c(C)n2-c2ccccc2Cl)cc1	2	7

# Reprinted at random: 2 compounds from above
Molecule	NPYLR7 ag	NPYLR7 ag max-min
Cc1cccc(CO[C@]2(C(=O)NCCN3CCCC3)CC(OCc3c(F)cccc3F)[C@H](O)[C@H](O)C2)c1 (stereo partly drawn)	-6	-3
CCCCCCCC(=O)Nc1ccc(N2CCc3ccccc3C2)c(C(=O)NC2CC2)c1	-5	4

# (list continues)
Molecule	NPYLR7 ag	NPYLR7 ag max-min
Cc1c(F)cccc1S(=O)(=O)Nc1ccc2c(c1)n(C)c(=O)n2C	-4	-6
COc1ccccc1-c1cc(C(=O)NC2CCCCNC2=O)nc2c(-c3ccccc3)c(C)nn12 (stereo not drawn)	2	15
COc1ccc(-c2cc(C(F)(F)F)n3ncc(C(=O)NC(C)C)c3n2)cc1OC	-7	-9
COC(=O)C1(NC(=O)C2CC(=O)N(c3ccc(Br)cc3)C2)CCCCC1 (stereo not drawn)	-2	-5
COCc1nc(C)c(CNC(=O)c2oc3ccc(C)cc3c2C)s1	5	3
CCN1CCN(CCOc2ccccc2-c2[nH]cnc2-c2ccccc2)CC1	4	-4
O=C(NCC1CC1)c1nn(-c2ccc(F)cc2)c(=O)n(Cc2ccccc2F)c1=O	12	11
Cc1ccc2nc(N(CCN(C)C)C(=O)c3cc(Cl)sc3Cl)sc2c1	-4	-9
COc1ccc(C2C(C(=O)OCC3CCCO3)=C(C)NC3=C2C(=O)CCC3)cc1O (stereo not drawn)	0	-1
Cc1ccc2c(c1)C(C)(Cc1ccc(OC(F)(F)F)cc1)C(=O)N2 (stereo not drawn)	-2	2
COc1ccc(C2=NN(C(=O)CCC(=O)O)C(c3ccccc3)C2)cc1 (stereo not drawn)	3	3
CCn1nnc2c(N3CCN(c4ccccc4)CC3)ncnc21	11	8
CCN(CC)P1(=Nc2ccc([N+](=O)[O-])cc2)C(=C2N(C)c3ccccc3C2(C)C)C=NN1C (stereo not drawn)	3	1
CN(C(=O)c1cccs1)C(Cc1ccccc1)C1CCN(C(=O)c2ccc(-n3cccn3)cc2)CC1 (stereo not drawn)	6	-3
CN(CC(=O)NCC(C)(C)c1ccccc1F)C(=O)c1cccs1	2	2
CC(=O)OC/C=C(C)/C=C/C=C(C)/C=C/C1=C(C)CCCC1(C)C	-13	-16
COc1cccc(-c2cc(C(=O)NCCc3ccccn3)n(-c3cccc([N+](=O)[O-])c3)n2)c1	-2	6
CCCc1cnc(C)nc1N1CCC(O)(C(=O)O)CC1	-1	-3
CCOc1ccccc1N1CCN(C(=O)c2cc(-c3ccc(Cl)cc3)n(-c3ccccc3OC)c2C)CC1	1	10
CNC(=O)CN(C(=O)c1cccc(C#N)c1)c1cccc(F)c1	11	5
CN=C(NC(C)C1CCCO1)N1CCC(C)CC1 (stereo not drawn)	1	0
c1ccc(-c2nc(N3CCCC3)c3ccccc3n2)cc1	-6	-6
Brc1ccc(C2=Nc3cccc4cccc(c34)N2)o1	5	-2
CCc1nc2ccc(C(=O)Nc3cccc(OCC(=O)N(C)C)c3)cn2c1N(C)Cc1ccc(OC)cc1	35	18
COc1ccc(CCN(C)C2CCCN(C(=O)c3ccsc3)C2)cc1OC (stereo not drawn)	0	-2
CCOc1ccc(-c2c(=O)n(O)c3ccccc3[n+]2[O-])cc1	11	2
Cc1ccc(NS(=O)(=O)c2c(C)noc2C)c(C)c1	11	7
CCc1cc(Oc2ccc(Cl)c(C)c2)nc(SCc2cccc(C)c2)n1	26	19
Cc1cc(CNC(=O)c2ccccc2C2CCNC2)ccc1F (stereo not drawn)	2	-1
COc1ccc(C(=O)NNC(=O)c2cc(Br)c[nH]2)c(OC)c1	2	9
O=C(c1cnn(-c2ccccc2)c1C(F)(F)F)N(Cc1ccc(F)cc1)Cc1nc2cc(Cl)ccc2o1	9	4
CCn1ccnc1Cn1ccnc1-c1ccccc1-c1ccco1	3	0
Cc1ccc2nc(SCC(=O)Nc3ccc(Cl)cc3)nc(=O)n2c1	4	0
CNC(=O)c1nn(CN(C)Cc2ccc(SC)cc2)c(=O)c2ccccc12	12	10
CCC(C(=O)Nc1ccc(-n2nc(OCC(C)C)nc2-c2ccc(C)cc2)cc1)c1ccccc1 (stereo not drawn)	15	15
CCOCC(=O)NCCn1ncc2c(=O)n(Cc3ccccc3C)cnc21	-4	-11

# Full records, looked up by structure:
# COc1ccc(-c2cccc(NS(=O)(=O)c3ccc(Cl)s3)c2)nn1 in the list: NPYLR7 ag: -1; NPYLR7 ag max-min: 29
# N#CC1(C#N)OC(C#N)(C#N)C2c3ccccc3OC21 (stereo not drawn) in the list: NPYLR7 ag: -5; NPYLR7 ag max-min: -7
# CCn1ccnc1Cn1ccnc1-c1ccccc1-c1ccco1 in the list: NPYLR7 ag: 3; NPYLR7 ag max-min: 0

# Remaining list, next part
Molecule	NPYLR7 ag	NPYLR7 ag max-min
O=C(O)CCCCCN1C(=O)C2CCCCC2C1=O (stereo not drawn)	0	-1
CC1CN(CCN2C(=O)CNC2=O)CCN1c1nccs1 (stereo not drawn)	-1	-2
O=C(c1cc2cccc(Br)c2o1)N(Cc1ccncc1)C1CC1	6	2
O=C(Nc1c(Cl)cccc1C(F)(F)F)N[C@H](Cc1ccccc1)C(=O)N1CCC(C(=O)N2CCOCC2)CC1	-2	1
COc1ccc(Nc2nc(-c3cc4cc(Br)ccc4oc3=O)cs2)cc1	-3	-10
COCc1cc(C)nc(N/N=C\c2ccc(-c3cc(Cl)ccc3Cl)o2)c1C#N	0	8
Cc1onc(-c2ccccc2Cl)c1C(=O)NCCCN(C)C	6	10
C=CCON1C(=O)C(C)(C)N(OCC=C)C(=O)C1(C)C	-8	-17
CC(=O)Nc1c(C)cccc1C(=O)OC(C)C	2	1
CCC(C)NC(=O)c1cc(-c2ccc(OC)cc2)nc2cc(C(C)(C)C)nn12 (stereo not drawn)	8	12
Cc1cccc(NC(=O)C[C@@H]2[C@H](O)CCC3[C@](C)(CO)[C@H](O)CC[C@]32C)n1 (stereo partly drawn)	-13	-16
C=C(NN=C1CC2CCC1(C)C2(C)C)c1cc(OC)ccc1O (stereo not drawn)	-1	-2

# Compounds shown so far containing a COOH group, in the order listed:
Molecule	NPYLR7 ag	NPYLR7 ag max-min
COc1ccc(C2=NN(C(=O)CCC(=O)O)C(c3ccccc3)C2)cc1 (stereo not drawn)	3	3
CCCc1cnc(C)nc1N1CCC(O)(C(=O)O)CC1	-1	-3
O=C(O)CCCCCN1C(=O)C2CCCCC2C1=O (stereo not drawn)	0	-1

# More results follow.
Molecule	NPYLR7 ag	NPYLR7 ag max-min
Cc1ccsc1CCNC(=O)C1(Oc2cccnc2C)CCNCC1	7	6
CCN=C(N)c1ccncc1	-7	-14
CC(=O)Nc1cc(NC(=O)c2cc(Br)c(Br)s2)ccc1F	-6	-7
COc1cc(NCCn2cc(C(=O)N3CCSCC3)nn2)ncn1	2	0
Cc1nnsc1CN(C)C(=O)c1cc(Cn2ccc3ccccc32)[nH]n1	6	-6
O=C(Nn1cnc2c(cnn2-c2ccccc2)c1=O)C1c2ccccc2Oc2ccccc21	-2	-3
CC1CCC2(CC1)OCC(C(=O)NC(C)c1ccccc1)N2C(=O)c1ccccc1Cl (stereo not drawn)	2	0
O=C(Cc1ccc(Br)cc1)Nc1ccc(-c2ccc3nncn3n2)cc1	-12	-4
Cc1nn(CC(=O)N(C)C)c(=O)c2ccccc12	1	1
CC(C)NC(=O)N1CC[C@@H](CC(=O)O)[C@@H](CCN(C)CCc2ccccn2)C1	-12	-16

# Screens (PubChem BioAssay)
